Compound activity as filed in PubChem BioAssay.
Vaccinia mCherry: inhibitors of vaccinia virus infection (mCherry reporter signal). Vaccinia virus mCherry reporter infection, fluorescence; about a quarter of the inactives have no number. Potency, µM (titrated, usually from 36.5 µM), inactives show at the top dose activity change, negative = inhibition, hits mostly inhibitors. actives 0.63% (n = 310,000); active = well fitted inhibition curve with a large enough effect; inconclusive = small, poorly fitted or top-dose-only effect; inactive = no such curve, though single readings can be large or run the other way; tested in A549 cells; also: nearly all actives have a fitted effect of over 35% in size; inactives centre near -10
Vaccinia Venus: vaccinia inhibition (Venus reporter); Vaccinia virus Venus reporter expression, fluorescence; Potency, µM (titrated, usually from 36.5 µM), without a hit: at the highest dose activity change, negative = inhibition, most hits filed as inhibitors; actives 0.46% (n = 330,000); AID 720580; active means well fitted inhibition curve with a large enough effect; inconclusive means small, poorly fitted or top-dose-only effect; inactive means no such curve, though single readings can be large or run the other way; tested in A549 cells; also: nearly all actives have a fitted effect of over 30% in size; inactives centre near -10
Starred values were filed as active, the others as inactive; i = inactive; ? = inconclusive; nt = not tested or not shown. % is scaled to controls: 0 for no effect and ±100 for the full control effect; potency is read from the fitted curve at half-maximal effect.

SMILES	Vaccinia mCherry	Vaccinia Venus
COc1ccc(/C=C2\SC(=S)N(CC(=O)N3CCN(C)CC3)C2=O)cc1	i	-9%
COc1cccc(CNC(=O)c2cc3ccc4cccnc4c3[nH]2)c1	-6%	-7%
O=C1Nc2ccccc2N(C(=O)c2ccc3ccccc3c2)C1c1nc2ccccc2[nH]1 (stereo not drawn)	-22%	-9%
CC(=O)N1CCc2c(sc(NC(=O)CCS(=O)(=O)c3ccccc3)c2C#N)C1	13µM*	?
CCCOC(=O)c1ccc(NC(=O)COC)cc1	nt	0%
NS(=O)(=O)c1ccc(NC(=S)NCC2CCCO2)cc1 (stereo not drawn)	i	-6%
O=C(O)/C=C/C(=O)NC1CCCCC1	-12%	-12%
CCS(=O)(=O)N1CCN(c2ccc(C(=O)NC3C4CC5CC(C4)CC3C5)cc2[N+](=O)[O-])CC1 (stereo not drawn)	-8%	-10%
COc1cc(C(=O)Nc2ccc(NC(=O)c3ccccc3)nc2)cc(OC)c1OC	2%	13%
O=C(NCCSCc1ccccc1)C1CCN(S(=O)(=O)Cc2ccccc2)CC1	-9%	-10%
CCc1ccccc1NC(=O)c1cc(S(=O)(=O)N(C)C)ccc1N1CCCC1	-12%	-10%
COC(=O)C1=C(C)Nc2nnnn2C1c1cccnc1 (stereo not drawn)	nt	9%

The final two records of the part above lead into the next.
SMILES	Vaccinia mCherry	Vaccinia Venus
CCc1ccccc1NC(=O)c1cc(S(=O)(=O)N(C)C)ccc1N1CCCC1	-12%	-10%
COC(=O)C1=C(C)Nc2nnnn2C1c1cccnc1 (stereo not drawn)	nt	9%
Cc1cc(C)cc(SCc2noc(C(=O)NCCCN3CCOCC3)c2C(=O)NCCCN2CCOCC2)c1	i	?
COc1cccc(-c2cn3ncsc3n2)c1	-19%	-15%
COC(=O)c1ccsc1NC(=O)c1ccccc1	i	-9%
Cc1cc(N2CCOCC2)n2ncc(-c3ccc(Cl)cc3)c2n1	i	-7%
O=C(NCCCNCc1ccccc1)/C(=N\O)c1ccccc1	-7%	-6%
CCOC(=O)c1ccccc1N/C=C/C(=O)c1ccccc1	-11%	-28%
CC(C)OC(=O)C1=C2SCC(=O)N2C(N)=C(C#N)C1	-5%	3%
O=C(NCc1cccnc1)C(=O)NCC(c1cccnc1)N1CCN(c2ccccc2F)CC1 (stereo not drawn)	-10%	-12%
CCCN(CCC)C(=O)Cn1c(=O)c2ccccc2n2c(=S)sc(-c3ccccc3C)c12	i	-12%
CCCNC(=O)N(C)C[C@@H]1Oc2cc(C#C[C@H](C)O)ccc2S(=O)(=O)N([C@H](C)CO)C[C@H]1C	-13%	-18%
COC(=O)CSc1nnc2n(-c3ccccc3)c(=O)c3c4c(sc3n12)COC(C(C)C)C4 (stereo not drawn)	-7%	3%
COc1ccc2oc(=O)c(C(=O)N3CCCc4ccccc43)cc2c1	0%	4%
COC(=O)C(CCCCN1C(=O)C2C3C=CC(C3)C2C1=O)N1C(=O)C2C3C=CC(C3)C2C1=O (stereo not drawn)	-1%	-12%
CC1=NN(c2ccccc2)C(=O)/C1=C/c1c(O)n(-c2ccc(F)c(Cl)c2)[nH]c1=O	-24%	-23%
O=C(COC(=O)c1ccc(Br)o1)NCCNC(=O)COC(=O)c1ccc(Br)o1	?	?
COc1ccc(CCNS(=O)(=O)c2csc(C(N)=O)c2)cc1OC	i	-14%
CC(SCC(=O)Nc1ccc(F)cc1)c1nc2ccccc2c(=O)[nH]1 (stereo not drawn)	-12%	-12%
Nc1cccc(C#Cc2ccc3c(c2)C(=O)/C(=C/c2ccsc2)O3)c1	?	-7%
O=S(=O)(NCc1ccccc1F)NCc1ccccc1F	i	-15%
CNc1nc(-c2ccc3c(c2)CCN3C(=O)c2ccccc2F)c(C)s1	-13%	-21%
CCc1cc(C(=O)NC(C)c2ccccc2)no1 (stereo not drawn)	-6%	4%
CC1CCN(C(=O)c2[nH]cnc2C(=O)NCc2ccc(CNC(=O)OC(C)(C)C)cc2)CC1	-25%	-12%
c1ccc(-n2c(SCc3ccncc3)nnc2-c2ccco2)cc1	nt	-4%
CCN(CC)c1ccc(NC(=O)CSc2nc(-c3cccs3)cc(C(F)(F)F)n2)cc1	3%	3%
Cc1ccccc1OCc1nnc(SCC(=O)Nc2ccc(N3CCOCC3)c(Cl)c2)n1C	-24%	-21%
CN(C)c1nc2n(c(=O)n1)CCS2	-14%	-8%
Cc1cc2nc(-c3cccc(NC(=O)COc4ccc(C(C)C)cc4)c3)oc2cc1C	-13%	-9%
CCOC(=O)N1CCC(NC(=O)c2cccc3c2C(=O)N(Cc2cccnc2)C3)CC1	-5%	-4%
COC(=O)c1ccc(Nc2nc(C)nc3c2nnn3Cc2ccccc2)cc1	i	-7%
COc1ccccc1C(=O)NCCC(=O)N(C)CC(=O)Nc1c(Cl)cccc1Cl	i	-13%
c1ccc(Cc2nnc3n2N=C(c2ccccc2)CS3)cc1	i	-12%
COc1ccccc1N(C)S(=O)(=O)c1ccc(C(=O)OCC(=O)Nc2ccccc2F)cc1	i	0%
CC1(C)CC(=O)N(CC(=O)N2CCN(c3ncccn3)CC2)c2ccccc2S1(=O)=O	-8%	-10%
Cc1cc(NS(=O)(=O)c2ccc(NC(=O)Cc3ccc(Cl)c(Cl)c3)cc2)no1	0%	0%
Cc1cc(Br)ccc1NC(=O)C1CCN(C(=O)c2ccco2)CC1	-13%	-9%
C[C@H]1CN([C@@H](C)CO)C(=O)CCCn2nncc2CO[C@@H]1CN(C)S(=O)(=O)c1cn(C)cn1	-4%	-14%
O=[N+]([O-])c1cccc(/C=N/Nc2nc(NCc3ccccc3)nc(N3CCOCC3)n2)c1	-19%	-2%
CSCCC(NC(=O)c1ccc(Br)cc1)C(=O)O (stereo not drawn)	4%	-4%
Cc1cc(C)c2nc(N(CCCN(C)C)C(=O)c3ccc4c(c3)CCCC4)sc2c1	-10%	-19%
O=c1o[nH]c(-c2ccccc2)c1C=Nc1ccc(Cl)cc1	i	6%
COc1ccc(CN2CCN(C(=O)C3CC(=O)N(C4CCCCCC4)C3)CC2)c(OC)c1OC (stereo not drawn)	nt	-13%
CCOc1ccccc1N1CCN(C(=O)c2cccc(S(=O)(=O)N3CCOCC3)c2)CC1	-23%	-8%
O=c1oc2c3c4c(cc2c2c1CCC2)OCCN4CCC3	?	?
CC1CCc2sc3nc(NCc4ccco4)n4ncnc4c3c2C1 (stereo not drawn)	nt	?
CC(=O)c1cccc(NC(=O)C2CCCN2S(=O)(=O)c2cccs2)c1 (stereo not drawn)	i	-13%
Cc1ccc(CCCOC(=O)CN2CCCCC2)cc1	-19%	-4%
Cc1ccc(-c2cc(C(=O)NN3CCOCC3)c3cc(Br)ccc3n2)o1	i	6%
CCN1CCN(C(=S)c2ccc(Cl)cc2)CC1	-11%	-7%
COC(=O)Cn1c(C(F)(F)F)nc2ccccc21	-22%	-12%
CN(C)P(=NC(=S)c1cccn1C)(N(C)C)N(C)C	-12%	-4%
Cc1cc(C)c2c(CN3CCCCC3)cc(=O)oc2c1	9%	0%
N#Cc1ccc(CSc2nnc(Nc3ccccc3)s2)cc1	-20%	-14%
CC(=O)N1CCN(C(=O)c2cccc(S(=O)(=O)N3CCOCC3)c2)CC1	-10%	-12%
CC(=O)Nc1cccc(C(=O)OCC(=O)NC(C)c2ccc(F)cc2)c1 (stereo not drawn)	-12%	-13%
COc1ccc(-c2nc3nc(C)cc(=O)n3[nH]2)cc1	i	-13%
O=C1NC(=S)NC(=O)C1C/C=C/c1ccccc1	i	-8%
O=C(OCc1ccccc1)N1C=CC2CC1c1c(Cl)cccc12 (stereo not drawn)	?	-18%
Clc1ccc(-c2csc(N/N=C/c3cccnc3)n2)c(Cl)c1	-15%	-13%
O=C1CC(c2nnc(Cc3cccc(Cl)c3)o2)CN1c1ccccc1 (stereo not drawn)	-1%	-9%
COc1ccccc1OCCCN1CCC(C(O)(c2ccccc2)c2ccccc2)CC1	-22%	-10%
Next structures:
SMILES	Vaccinia mCherry	Vaccinia Venus
Cc1nn(C)cc1CNC(=O)Nc1cccc(Cl)c1	-3%	8%
CC(=O)c1ccc(-c2ccc([C@H]3[C@@H]4C=CCC[C@@]4(C)C(=O)N3Cc3ccccc3)c(F)c2)cc1	-19%	?
COc1ccc(C(=O)NNC(=O)CCn2nnc(-c3ccc(Cl)cc3)n2)cc1OC	-13%	-2%
O=C(CNC(=O)c1ccccc1)N/N=C/c1ccc([N+](=O)[O-])s1	10µM*	10µM*
COc1cccc(C2C(C(=O)Nc3ccc(Cl)cc3)=C(C)Nc3nc4ccccc4n32)c1 (stereo not drawn)	-5%	-6%
COc1ccccc1CNC(=O)Cc1ccccc1	i	-13%
CCCC(=NCc1ccccc1)C1=C(O)C(C(=O)OC)C(C)(C)CC1=O (stereo not drawn)	i	-1%
C=C1C=C(C(F)F)n2ncc(C(=O)NCc3ccccc3OC)c2N1	-29%	-19%
CCOC(=O)c1ccc(NC(=O)Cn2c(=O)cc(C(F)(F)F)c3c(C)nn(C)c32)cc1	-2%	2%
CC(Oc1ccccc1)C(=O)NNC(=O)c1cccs1 (stereo not drawn)	i	-7%
O=C(CSc1nnc(-c2ccc3c(c2)OCO3)o1)Nc1ncc(Cl)cc1Cl	-14%	-16%
O=S(=O)(NC1CCCCCCC1)c1ccc(F)cc1	?	-13%
Cc1ccc(NC(=O)c2sc3ccccc3c2Cl)nc1	-15%	-11%
CC1C(=O)N2CCCc3cc(S(=O)(=O)N4CCN(c5ccc(F)cc5)CC4)cc1c32 (stereo not drawn)	0%	-11%
CCc1ccccc1NC(=O)C1CCN(C(=O)N2CCOc3ccccc32)CC1	0%	-15%
CCCS(=O)(=O)N1CCCC(C(=O)NC(C)c2ccc3c(c2)OCCO3)C1 (stereo not drawn)	nt	-5%
COc1ccc(S(=O)(=O)NC(C)(C)CO)cc1-c1nnc2c3ccccc3c(C)nn12	3%	3%
COC(=O)c1cc2oc3ccccc3c2n1Cc1nc(-c2cccc(Cl)c2)oc1C	-7%	1%
COc1ccc(CC(=O)N[C@@H]2c3ccccc3CC[C@@H]2OCc2ccccc2)cc1	-26%	-6%
CC(CNC(=O)CCn1c(=O)c2cccn2c2ccc(F)cc21)c1ccccc1 (stereo not drawn)	5%	-6%
O=C(COC(=O)CCCOc1ccc(Cl)cc1Cl)NCc1ccc(F)cc1	-8%	-9%
Cc1sc2ncnc(OCC(=O)NC(C)C(C)C)c2c1C (stereo not drawn)	i	-21%
O=C(NCc1ccc2c(c1)OCO2)c1ccc(CS(=O)(=O)c2ccc(Br)cc2)o1	i	-11%
O=C(N/N=C/c1ccccc1O)C1(O)c2ccccc2-c2ccccc21	?	?
COc1ccc(NC(C)=O)cc1S(=O)(=O)Nc1ccc(OCc2ccccc2)cc1	-25%	2%
O=C(CN(C(=O)c1csnn1)c1ccc(F)c(Cl)c1)NCc1ccc(F)cc1	-19%	-8%
COc1ccc(NC(=O)c2c(C)oc3ccc(O)c(CN4CCN(C)CC4)c23)cc1Cl	-17%	-6%
CC(NC(=O)c1cccnc1)c1nnc2n1CCN(Cc1ccc(F)cc1F)CC2 (stereo not drawn)	-7%	-2%
COCCN1C[C@@H](CO)O[C@@H](n2cnc3c(NC4CCCC4)ncnc32)C1	1%	3%
Cc1ccc(Nc2c3c(nc4nc(-c5cccs5)nn24)CCCC3)cc1F	11µM*	?
CCC1CCCCN1CCCNC(=O)c1ccc2c(c1)N(Cc1ccccc1)C(=O)c1ccccc1S2(=O)=O (stereo not drawn)	-15%	-16%
COc1ccc(NC(=O)CSc2nnc(C3CCCCC3)n2N)c(OC)c1	i	-1%
CCc1ccc(Nc2cc(C(=O)NCCCN(C)c3ccccc3)c3ccccc3n2)cc1	-2%	-6%
CC(=O)Nc1ccc(NC(=O)CCc2c(C)nc3c(c(C)nn3-c3ccc(C)cc3)c2C)cc1	-28%	-25%
CCC1CC(C(=O)O)CC(=O)N1 (stereo not drawn)	8%	3%
O=C(CSc1cccc[n+]1[O-])Nc1ccccc1Oc1ccccc1	-17%	-8%
Cc1cccc(C)c1NC(=S)N(Cc1ccccc1)Cc1cccs1	-10%	4%
Cc1ccc(-c2nnc(SCc3ccccc3C#N)o2)cc1	9%	-2%
CCOC(=O)n1n[n+]([O-])c2ccccc21	-5%	-1%

Sorted by number of heavy atoms (ascending): 13 of the compounds above
SMILES	Vaccinia mCherry	Vaccinia Venus
CCC1CC(C(=O)O)CC(=O)N1 (stereo not drawn)	8%	3%
CCOC(=O)n1n[n+]([O-])c2ccccc21	-5%	-1%
Cc1ccc(-c2nnc(SCc3ccccc3C#N)o2)cc1	9%	-2%
Cc1cccc(C)c1NC(=S)N(Cc1ccccc1)Cc1cccs1	-10%	4%
O=C(N/N=C/c1ccccc1O)C1(O)c2ccccc2-c2ccccc21	?	?
COCCN1C[C@@H](CO)O[C@@H](n2cnc3c(NC4CCCC4)ncnc32)C1	1%	3%
O=C(CN(C(=O)c1csnn1)c1ccc(F)c(Cl)c1)NCc1ccc(F)cc1	-19%	-8%
O=C(NCc1ccc2c(c1)OCO2)c1ccc(CS(=O)(=O)c2ccc(Br)cc2)o1	i	-11%
COc1ccc(NC(C)=O)cc1S(=O)(=O)Nc1ccc(OCc2ccccc2)cc1	-25%	2%
COc1ccc(NC(=O)c2c(C)oc3ccc(O)c(CN4CCN(C)CC4)c23)cc1Cl	-17%	-6%
CCc1ccc(Nc2cc(C(=O)NCCCN(C)c3ccccc3)c3ccccc3n2)cc1	-2%	-6%
CC(=O)Nc1ccc(NC(=O)CCc2c(C)nc3c(c(C)nn3-c3ccc(C)cc3)c2C)cc1	-28%	-25%
CCC1CCCCN1CCCNC(=O)c1ccc2c(c1)N(Cc1ccccc1)C(=O)c1ccccc1S2(=O)=O (stereo not drawn)	-15%	-16%

Outcome played no part in choosing rows (roughly 0.86% active in at least one column).
